From PubChem
Yeast UUG start – alters start codon recognition fidelity in yeast; S. cerevisiae UUG-firefly luciferase reporter, luminescence/redox ratio; activity score, % at 18.7 µM; 0.13% of 350,000 active;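 active = replicate mean at a twofold rise or more, about +100% in these data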;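 also: firefly luciferase made from a UUG start codon reports start codon fidelity; reporter light over untreated wells divided by growth signal over untreated wells; some hits fall short of that in this replicate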
HIV Env fusion – inhibitors of HIV Env-mediated cell fusion | HeLa-JRFL Env/CEM21 cell fusion, luciferase | inhibition, % at 12.3 µM | 1.1% of 360,000 active | AID 651610;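 active = mean replicate inhibition score of at least 50 and every replicate individually at or above 50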;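 also: 0% = plate neutral controls and 100% = maraviroc near 300 nM; one replicate is shown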
* marks the source's active call; other numbers are inactive results; [ ] = remark or other dose. The list is partial. The share of hits here may be higher or lower than overall.

Start of the listing, in advance, 2 compounds:
Screening CN(C)CC(=O)Nc1ccc2c(c1)[C@H]1C[C@H](CC(=O)NCCc3ccccc3)O[C@H](CO)[C@H]1O2 returned Yeast UUG start 4 and HIV Env fusion 54[16.7 µM].
For N#C[C@@H]1[C@@H](c2ccc(C#Cc3cccc(F)c3)cc2)[C@H](CO)N1C(=O)C1CCCC1 the results were Yeast UUG start -15 and HIV Env fusion 0[16.7 µM].

Main list, repeating the preview:
Screening CN(C)CC(=O)Nc1ccc2c(c1)[C@H]1C[C@H](CC(=O)NCCc3ccccc3)O[C@H](CO)[C@H]1O2 returned Yeast UUG start 4 and HIV Env fusion 54[16.7 µM].
For N#C[C@@H]1[C@@H](c2ccc(C#Cc3cccc(F)c3)cc2)[C@H](CO)N1C(=O)C1CCCC1 the results were Yeast UUG start -15 and HIV Env fusion 0[16.7 µM].
Screening C[C@H]1CN([C@@H](C)CO)C(=O)c2cc(-c3cncnc3)cnc2O[C@@H]1CN(C)CC1CCOCC1 returned Yeast UUG start -8 and HIV Env fusion -7[16.7 µM].
`C[C@@H]1CN([C@H](C)CO)S(=O)(=O)c2ccc(C#Cc3ccc(F)cc3)cc2O[C@@H]1CN(C)C(=O)NC1CCCCC1` gave Yeast UUG start -9 and HIV Env fusion 38[16.7 µM].
`C[C@@H]1CN([C@H](C)CO)C(=O)c2cc(NC(=O)NC3CCCCC3)ccc2O[C@@H](C)CCCCO[C@@H]1CN(C)Cc1ccc(Cl)c(Cl)c1` gave Yeast UUG start 13 and HIV Env fusion 13[16.7 µM].
For CO[C@H]1CN(C)C(=O)c2cc(NC(=O)c3ccno3)ccc2OC[C@@H](C)NC[C@@H]1C the results were Yeast UUG start 5 and HIV Env fusion -9[16.7 µM].
Screening CC(C)c1cn(CC[C@H]2CC[C@H](NS(=O)(=O)c3ccc(F)cc3)[C@H](CO)O2)nn1 returned Yeast UUG start -5 and HIV Env fusion -3[16.7 µM].
For C[C@H]1CN([C@@H](C)CO)C(=O)Cc2cc(NC(=O)Nc3ccccc3)ccc2O[C@H]1CN(C)Cc1ccc(Cl)c(Cl)c1 the results were Yeast UUG start 8 and HIV Env fusion 46[16.7 µM].
`C[C@H]1CN([C@@H](C)CO)C(=O)c2cc(NC(=O)C3CC3)ccc2O[C@H]1CN(C)Cc1ccc(C(F)(F)F)cc1` gave Yeast UUG start 20 and HIV Env fusion -6[16.7 µM].
For Cc1noc(C)c1S(=O)(=O)Nc1ccc2c(c1)C(=O)N([C@@H](C)CO)C[C@H](C)[C@H](CN(C)C)OCCCC[C@@H](C)O2 the results were Yeast UUG start 24 and HIV Env fusion -5[16.7 µM].

Reprinted at random: 5 records from the list.
Screening CC(C)c1cn(CC[C@H]2CC[C@H](NS(=O)(=O)c3ccc(F)cc3)[C@H](CO)O2)nn1 returned Yeast UUG start -5 and HIV Env fusion -3[16.7 µM].
For N#C[C@@H]1[C@@H](c2ccc(C#Cc3cccc(F)c3)cc2)[C@H](CO)N1C(=O)C1CCCC1 the results were Yeast UUG start -15 and HIV Env fusion 0[16.7 µM].
For Cc1noc(C)c1S(=O)(=O)Nc1ccc2c(c1)C(=O)N([C@@H](C)CO)C[C@H](C)[C@H](CN(C)C)OCCCC[C@@H](C)O2 the results were Yeast UUG start 24 and HIV Env fusion -5[16.7 µM].
`C[C@@H]1CN([C@H](C)CO)S(=O)(=O)c2ccc(C#Cc3ccc(F)cc3)cc2O[C@@H]1CN(C)C(=O)NC1CCCCC1` gave Yeast UUG start -9 and HIV Env fusion 38[16.7 µM].
For CO[C@H]1CN(C)C(=O)c2cc(NC(=O)c3ccno3)ccc2OC[C@@H](C)NC[C@@H]1C the results were Yeast UUG start 5 and HIV Env fusion -9[16.7 µM].

(list continues)
For C[C@@H]1CN([C@@H](C)CO)S(=O)(=O)c2ccc(C#CCC3CCCC3)cc2O[C@@H]1CN(C)Cc1ccc(C(=O)O)cc1 the results were Yeast UUG start 6 and HIV Env fusion -28[16.7 µM].
Screening C[C@H](CO)N1C[C@H](C)[C@H](CN(C)Cc2ccccc2)OCCCC[C@H](C)Oc2ccc(NC(=O)NC3CCCCC3)cc2C1=O returned Yeast UUG start 7 and HIV Env fusion -22[16.7 µM].
`COc1ccc(NC(=O)Nc2cccc3c2O[C@@H](CN(C)S(=O)(=O)c2ccc(F)cc2)[C@H](C)CN([C@@H](C)CO)C3=O)cc1` gave Yeast UUG start 13 and HIV Env fusion -24[16.7 µM].
`COc1ccc(NC(=O)Nc2ccc3c(c2)C(=O)N([C@@H](C)CO)C[C@H](C)[C@H](CN(C)C(=O)Nc2ccc(F)cc2)OCCCC[C@@H](C)O3)cc1` gave Yeast UUG start -15 and HIV Env fusion -15[16.7 µM].
O=C(C[C@H]1CC[C@H]2[C@@H](COC[C@H](O)CN2CC2CCOCC2)O1)NCC1CC1 was read as Yeast UUG start 2 and HIV Env fusion 8[16.7 µM].
COc1ccc(CN(C)C[C@@H]2OCCCC[C@H](C)Oc3ccc(NS(C)(=O)=O)cc3C(=O)N([C@@H](C)CO)C[C@H]2C)cc1 was read as Yeast UUG start -5 and HIV Env fusion -1[16.7 µM].
`COc1ccc(S(=O)(=O)N(C)C[C@H]2OCCCC[C@@H](C)Oc3ccc(NC(=O)Nc4cccc5ccccc45)cc3C(=O)N([C@@H](C)CO)C[C@@H]2C)cc1` gave Yeast UUG start -26 and HIV Env fusion -22[16.7 µM].
C[C@@H]1CCCCO[C@H](CN(C)Cc2ccccc2)[C@@H](C)CN([C@H](C)CO)C(=O)c2cc(NC(=O)Nc3ccc(F)cc3)ccc2O1 was read as Yeast UUG start -7 and HIV Env fusion -1[16.7 µM].
`COc1ccc(S(=O)(=O)N(C)C[C@@H]2Oc3c(NS(=O)(=O)c4ccc(F)cc4)cccc3C(=O)N([C@H](C)CO)C[C@@H]2C)cc1` gave Yeast UUG start 1 and HIV Env fusion -18[16.7 µM].
Screening C[C@@H]1CCCCO[C@H](CN(C)Cc2ccc(C(=O)O)cc2)[C@H](C)CN([C@H](C)CO)C(=O)c2cc(NS(C)(=O)=O)ccc2O1 returned Yeast UUG start 13 and HIV Env fusion -13[16.7 µM].
Screening C[C@H]1CN([C@@H](C)CO)C(=O)Cc2cc(NC(=O)Cn3cnnn3)ccc2O[C@@H]1CN(C)C(=O)Nc1cccc2ccccc12 returned Yeast UUG start 11 and HIV Env fusion 12[16.7 µM].
Screening O=C(NCC[C@@H]1CC[C@@H](NS(=O)(=O)c2ccccc2)[C@H](CO)O1)c1ccccc1F returned Yeast UUG start 4 and HIV Env fusion 12[16.7 µM].
For Cc1noc(C)c1NC(=O)N(C)C[C@@H]1Oc2ccc(NC(=O)CCN3CCOCC3)cc2C(=O)N([C@@H](C)CO)C[C@@H]1C the results were Yeast UUG start 2 and HIV Env fusion -9[16.7 µM].
Screening CCCNC(=O)N(C)C[C@@H]1Oc2ncc(C#C[C@@H](C)O)cc2C(=O)N([C@@H](C)CO)C[C@H]1C returned Yeast UUG start 7 and HIV Env fusion 3[16.7 µM].
`CC(C)NC(=O)Nc1ccc2c(c1)CC(=O)N([C@H](C)CO)C[C@@H](C)[C@@H](CN(C)C(=O)Nc1cccc3ccccc13)O2` gave Yeast UUG start 9 and HIV Env fusion 21[16.7 µM].
Screening C[C@@H]1CCCCO[C@@H](CN(C)Cc2ccncc2)[C@H](C)CN([C@H](C)CO)C(=O)c2cc(NC(=O)c3ccccc3)ccc2O1 returned Yeast UUG start 7 and HIV Env fusion -16[16.7 µM].
Screening C[C@H](CO)N1C[C@H](C)[C@H](CN(C)CC2CCOCC2)Oc2ncc(C#Cc3ccccn3)cc2C1=O returned Yeast UUG start -4 and HIV Env fusion -16[16.7 µM].
For C[C@@H]1CN([C@@H](C)CO)C(=O)c2cccc(NS(=O)(=O)c3ccc(Cl)cc3)c2O[C@@H]1CN(C)Cc1ccc(C(=O)O)cc1 the results were Yeast UUG start 6 and HIV Env fusion -22[16.7 µM].
`COc1ccc(S(=O)(=O)Nc2ccc3c(c2)C(=O)N([C@@H](C)CO)C[C@H](C)[C@@H](CN(C)C(=O)Nc2c(C)noc2C)OCCCC[C@H](C)O3)cc1` gave Yeast UUG start 32 and HIV Env fusion -13[16.7 µM].
For C[C@H]1CN([C@@H](C)CO)C(=O)c2cc(NS(=O)(=O)c3ccccc3)ccc2O[C@@H]1CN(C)CC1CC1 the results were Yeast UUG start -5 and HIV Env fusion 2[16.7 µM].
Screening C[C@H]1CN([C@@H](C)CO)C(=O)c2cc(C#CC3CC3)cnc2O[C@H]1CN(C)C returned Yeast UUG start 11 and HIV Env fusion 8[16.7 µM].
`COc1ccc(NC(=O)Nc2ccc3c(c2)C(=O)N([C@H](C)CO)C[C@H](C)[C@@H](CN(C)C(=O)Nc2ccc(OC)cc2)OCCCC[C@@H](C)O3)cc1` gave Yeast UUG start -11 and HIV Env fusion 5[16.7 µM].
C[C@H](NC(=O)C[C@@H]1CC[C@@H]2[C@H](COC[C@H](O)CN2Cc2ccc(C(F)(F)F)cc2)O1)c1ccccc1 was read as Yeast UUG start 17 and HIV Env fusion 9[16.7 µM].
For CN(C)Cc1cn(CC[C@@H]2CC[C@@H](NC(=O)Nc3ccc4c(c3)OCO4)[C@H](CO)O2)nn1 the results were Yeast UUG start -7 and HIV Env fusion -9[16.7 µM].
Screening C[C@@H]1CN([C@@H](C)CO)C(=O)Cc2cc(NC(=O)Cc3ccccc3)ccc2O[C@H]1CN(C)Cc1ccc(C(=O)O)cc1 returned Yeast UUG start -11 and HIV Env fusion 11[16.7 µM].
`Cc1noc(C)c1S(=O)(=O)Nc1ccc2c(c1)CC(=O)N([C@H](C)CO)C[C@@H](C)[C@@H](CN(C)C(=O)NC(C)C)O2` gave Yeast UUG start -8 and HIV Env fusion 11[16.7 µM].
For Cc1noc(C)c1NC(=O)N[C@@H]1CC[C@H](CCNC(=O)C2CCOCC2)O[C@@H]1CO the results were Yeast UUG start 15 and HIV Env fusion 0[16.7 µM].
For C[C@@H]1CN([C@@H](C)CO)C(=O)Cc2cc(NS(=O)(=O)c3ccc(F)cc3)ccc2O[C@H]1CN(C)C the results were Yeast UUG start -9 and HIV Env fusion 49[16.7 µM].
For O=C(Nc1cccc(Cl)c1)N[C@H]1CC[C@H](CCNC(=O)C2CC2)O[C@@H]1CO the results were Yeast UUG start 5 and HIV Env fusion 3[16.7 µM].
`C[C@@H]1CN([C@@H](C)CO)S(=O)(=O)c2ccc(-c3cccnc3)cc2O[C@H]1CN(C)C(=O)NC1CCCCC1` gave Yeast UUG start 7 and HIV Env fusion -33[16.7 µM].
`COc1cccc(NC(=O)N[C@H]2CC[C@H](CC(=O)NCc3ccccn3)O[C@@H]2CO)c1` gave Yeast UUG start -16 and HIV Env fusion 19[16.7 µM].
`COc1cccc(S(=O)(=O)N[C@@H]2C=C[C@@H](CC(=O)NC3Cc4ccccc4C3)O[C@H]2CO)c1` gave Yeast UUG start 2 and HIV Env fusion -1[16.7 µM].
For C[C@H](CO)N1C[C@H](C)[C@H](CN(C)C(=O)Nc2ccccc2)Oc2ccc(NS(=O)(=O)c3ccc(F)cc3)cc2C1=O the results were Yeast UUG start 6 and HIV Env fusion -8[16.7 µM].
For CC(C)NC(=O)N(C)C[C@@H]1Oc2cc(-c3cccnc3)ccc2S(=O)(=O)N([C@@H](C)CO)C[C@@H]1C the results were Yeast UUG start -4 and HIV Env fusion 11[16.7 µM].
`CC(C)(C)c1ccc(CC(=O)N2CCC2(C)C(=O)NS(=O)(=O)c2cccc(Cl)c2)cc1` (stereo not given) gave Yeast UUG start -9 and HIV Env fusion -6.
Screening C[C@@H]1CN([C@H](C)CO)C(=O)Cc2cc(N(C)C)ccc2O[C@H]1CN(C)S(=O)(=O)c1cccs1 returned Yeast UUG start 1 and HIV Env fusion 0[16.7 µM].
CC(C)NC(=O)N(C)C[C@H]1OCCCC[C@@H](C)Oc2ccc(NC(=O)Nc3cccc4ccccc34)cc2C(=O)N([C@@H](C)CO)C[C@H]1C was read as Yeast UUG start -8 and HIV Env fusion -70[16.7 µM].
`O=C(C[C@@H]1CC[C@H](NC(=O)c2cccnc2)[C@H](CO)O1)NCc1ccc(Cl)c(Cl)c1` gave Yeast UUG start 25 and HIV Env fusion 11[16.7 µM].
C=CC[C@]1(C(=O)NCc2ccccc2)N=C(c2ccc(OCCCO)cc2)O[C@H]1c1ccccc1 was read as Yeast UUG start -6 and HIV Env fusion -9[16.7 µM].
`C[C@H](CO)N1C[C@H](C)[C@H](CN(C)C(=O)Nc2ccc(C(F)(F)F)cc2)Oc2ccc(NS(=O)(=O)c3ccc(Cl)cc3)cc2CC1=O` gave Yeast UUG start 6 and HIV Env fusion 13[16.7 µM].
Screening COc1ccc(NC(=O)N(C)C[C@@H]2OCCCC[C@H](C)Oc3ccc(NS(=O)(=O)c4ccccc4)cc3C(=O)N([C@@H](C)CO)C[C@@H]2C)cc1 returned Yeast UUG start 3 and HIV Env fusion -26[16.7 µM].
`COCCCNC(=O)[C@@]1(Cc2ccccc2)N=C(c2ccc(OCCCO)cc2)O[C@H]1c1ccccc1` gave Yeast UUG start 9 and HIV Env fusion 9[16.7 µM].
Screening C[C@@H]1CCCCO[C@H](CN(C)C(=O)Nc2ccc(C(F)(F)F)cc2)[C@H](C)CN([C@@H](C)CO)C(=O)c2cc(NS(=O)(=O)c3ccc(F)cc3)ccc2O1 returned Yeast UUG start -12 and HIV Env fusion 3[16.7 µM].
Screening CC(C)NC(=O)Nc1ccc2c(c1)C(=O)N([C@@H](C)CO)C[C@H](C)[C@H](CN(C)Cc1ccccc1)OCCCC[C@@H](C)O2 returned Yeast UUG start 9 and HIV Env fusion -4[16.7 µM].
Screening CCCN(C)C[C@@H]1OCCCC[C@@H](C)Oc2ccc(NS(=O)(=O)c3ccc(Cl)cc3)cc2C(=O)N([C@@H](C)CO)C[C@@H]1C returned Yeast UUG start 10 and HIV Env fusion -18[16.7 µM].
